Screening results as filed in PubChem.
Vaccinia mCherry: qHTS for Stage-Specific Inhibitors of Vaccinia Orthopoxvirus: mCherry Reporter Primary qHTS | Vaccinia virus mCherry reporter infection, fluorescence; about a quarter of the inactives have no number | Potency, µM (doses to about 36.5 µM), for inactives: at the highest dose activity change, negative = inhibition, actives largely listed as inhibitors | hit rate 0.63% among 310,000 | AID 720579, 2013; active = well fitted inhibition curve with a large enough effect; inconclusive = small, poorly fitted or top-dose-only effect; inactive = no such curve, though single readings can be large or run the other way; tested in A549 cells; also: nearly all actives have a fitted effect of over 35% in size; inactives centre near -10
VACV Venus inh: qHTS for Stage-Specific Inhibitors of Vaccinia Orthopoxvirus: Venus Reporter Primary qHTS. hit rate 0.46% among 330,000. Vaccinia virus Venus reporter expression, fluorescence. Potency, µM (top dose mostly 36.5 µM), without a hit: at the highest dose activity change, negative = inhibition, hits mostly inhibitors; active means well fitted inhibition curve with a large enough effect; inconclusive means small, poorly fitted or top-dose-only effect; inactive means no such curve, though single readings can be large or run the other way; tested in A549 cells; also: nearly all actives have a fitted effect of over 30% in size; inactives centre near -10
Numbers without * were called inactive; i = inactive; ? = inconclusive; / = not tested or not shown; & = joins results of further samples; [ ] = dose if it differs, or a comment. % is scaled to controls: 0 for no effect and ±100 for the full control effect; potency is read from the fitted curve at half-maximal effect.

SMILES | Vaccinia mCherry | VACV Venus inh
Cc1cccc(Cn2c(=O)n(Cc3ccccc3)c(=O)c3c2c2cc(C)ccc2n3C)c1 | -11.7% | -5.2%
N#CC1(C#N)OC12CCS(=O)(=O)c1ccccc12 (stereo not given) | -22.9% | -15.7%
Nc1nc(SCC(=O)c2ccc(Cl)cc2)c2ncn(C3OC(CO)C(O)C3O)c2n1 (stereo not given) | -11.3% | -10.1%
Cc1ccc(S(=O)(=O)C2C(=O)N(C)C3(C)CC2c2ccccc2O3)cc1C (stereo not given) | i | 1.5%
Cc1ccc(-c2ccc(C(=O)NCc3ccc(Cl)cc3)o2)c2ccccc12 | ? | -18.9%
O=C(O)CSc1c(Cl)c(=O)oc2ccc(Cl)cc12 | -14.0% | -5.0%
COc1ccccc1NS(=O)(=O)c1cc(NC(=O)c2ccc3c(c2)OCCO3)ccc1C | -23.0% | -17.7%
O=C(OCC(=O)N1CCCc2ccccc21)c1ccc(F)c(S(=O)(=O)N2CCOCC2)c1 | -12.9% | -12.1%
O=C(NCCCCNC(=O)c1ccc(Cl)s1)c1ccc(Cl)s1 | / | -18.8%
CCc1nnc(NC(=O)C2CCCN2C(=O)Nc2ccc(Cl)cc2)s1 (stereo not given) | -10.3% | -0.2%
CC1(C)CC(=O)C=C(Nc2ccc(C(=O)O)cc2)C1 | -3.8% | -1.9%
O=C(c1cccc([N+](=O)[O-])c1)N1CCCC(C(=O)N2CCN(c3ccccc3)CC2)C1 (stereo not given) | i | -15.8%
Cn1c(=O)c2c(nc(NCCc3ccccc3)n2Cc2ccc(Cl)cc2)n(C)c1=O | ? | ?
COCCNC(=S)N1CCC(NC(=O)Nc2ccc(C)cc2)CC1 | i | -12.0%
c1ccc(CCc2ccc3n2Cc2cnnn2-c2ccccc2-3)cc1 | ? | -21.0%

The last four entries of the section before come first, to join the parts.
SMILES | Vaccinia mCherry | VACV Venus inh
O=C(c1cccc([N+](=O)[O-])c1)N1CCCC(C(=O)N2CCN(c3ccccc3)CC2)C1 (stereo not given) | i | -15.8%
Cn1c(=O)c2c(nc(NCCc3ccccc3)n2Cc2ccc(Cl)cc2)n(C)c1=O | ? | ?
COCCNC(=S)N1CCC(NC(=O)Nc2ccc(C)cc2)CC1 | i | -12.0%
c1ccc(CCc2ccc3n2Cc2cnnn2-c2ccccc2-3)cc1 | ? | -21.0%
CCCCCCOc1ccc(N2C(=O)CC(N3CCN(CCN=CC4C(=O)CC(C)(C)CC4=O)CC3)C2=O)cc1 (stereo not given) | -0.7% | 0.2%
Cc1cc(F)ccc1NS(=O)(=O)c1cccc2nsnc12 | -12.5% | -6.5%
Cc1nnc(SCCN2CCOCC2)c2nn(-c3ccccc3F)c(C)c12 | -13.0% | -3.1%
CC(c1nccs1)N(C)C(=O)CCc1nnc(CCc2ccccc2)o1 (stereo not given) | i | 10.1%
CCN(CC)CCNC(=O)c1sc2nc3n(c(=O)c2c1C)CCCCC3 | -0.9% | -7.0%
CCCCOc1ccc(/C=C/C(=O)NCCc2nc3ccccc3[nH]2)cc1 | -16.3% | -10.4%
CN(CCC(=O)Nc1ccc2c(c1)OCO2)Cc1ccccc1 | i | -9.7%
O=C(COc1ccc(Cl)cc1)NCCCNC(=O)c1cnccn1 | 4.5% | 0.6%
COCCCNC(=O)CSC1=Nc2ccccc2C2=NC(Cc3c[nH]c4ccccc34)C(=O)N12 (stereo not given) | -13.8% | -10.4%
C[C@@H]1CN([C@@H](C)CO)C(=O)c2cccc(NC(=O)C3CCOCC3)c2O[C@H]1CN(C)S(=O)(=O)c1ccc(Cl)cc1 | i | -8.6%
C[C@H](NC(=O)c1ccccc1Cl)C(=O)Nc1ccccc1F | i | -3.3%
CC(=O)NC(NC(=S)N1CCCCCC1)C(Cl)(Cl)Cl (stereo not given) | i | 9.1%
CN1/C(=C\C(=O)c2cccnc2)Sc2ccccc21 | -9.7% | 0.3%
NC(N)=N/N=C/c1ccc(OCc2ccccc2)cc1 | -9.7% | -26.3%
COc1ccc2oc3c(c2c1)NC(=O)CN=C3c1ccccc1 | -2.3% | -18.7%
CCOc1ccc(C(=O)Nc2ccccc2CC)cc1[N+](=O)[O-] | -12.8% | -6.9%
CCN1/C(=C2\C(=O)N(C)C(=S)N2c2ccccc2)C=Cc2ccccc21 | -26.6% | -18.0%
CNC(=O)NC(=S)NC(=O)c1ccccc1Cl | i | -2.6%
Cc1cc2c(cc1S(=O)(=O)CCC(=O)N1CCC(C)CC1)OCC(=O)N2 | -7.3% | -4.7%
CSCCC(c1nc2ccccc2[nH]1)n1c(-c2ccc3ncccc3c2)nc2ccccc21 (stereo not given) | -11.9% | -17.5%
O=C(NCCC1CCCCN1S(=O)(=O)c1ccc(F)cc1)C(=O)NCCN1CCOCC1 (stereo not given) | i | -5.9%
CCOC(=O)NC(=O)CSc1ccc(C)cc1C | 3.4% | 3.0%
O=C(CCC1N=C2c3ccccc3N=C(SCc3cccc(F)c3)N2C1=O)NCc1cccs1 (stereo not given) | i | -23.5%
c1ccc2[nH]c(NC3=NCCC3)nc2c1 | -1.8% | -21.1%
CC(=O)N1C[C@@H](CO)[C@@H](N(C)C(=O)C2CCCCC2)C[C@H]1c1ccccc1 | 8.6% | -12.3%
O=C(c1cccnc1)N1CCC(Oc2ccc(C(=O)N3CCCCO3)cc2)CC1 | -21.4% | -16.0%
CC(NC(=O)C1CC(=O)N(c2ccc3c(c2)OCCO3)C1)c1ccccc1 (stereo not given) | 2.9% | -10.6%
NC(=O)C1CC(=O)N(c2ccc(OCC(=O)NCc3ccccc3)cc2)C1 (stereo not given) | -9.2% | 16.1%
Cc1ccc(S(=O)(=O)N(CC(=O)N/N=C/c2ccco2)Cc2ccccc2)cc1 | i | -15.3%
Cc1ccc2nc(/C(C#N)=C\c3ccc(Oc4ccc([N+](=O)[O-])cn4)cc3)[nH]c2c1 | i | -19.8%
Cc1ccc(NC(=O)c2ccc(Br)o2)cc1S(=O)(=O)N(C)C | -14.8% | -20.2%
COC(=O)C1(C)Nc2ccccc2C(=O)N1c1ccccc1C (stereo not given) | 4.3% | 1.4%
CCOC(=O)N1CCN(C(=O)c2ccccc2N(C)S(C)(=O)=O)CC1 | -22.5% | -10.4%
CCSCc1nnc(SCC(=O)Nc2nc3ccccc3s2)n1C | / | -7.8%
Cc1ccccc1Cn1ccc(=NCc2ccccc2)cc1 | i | -1.4%
CCN(CC)CCCN1C(=O)C(O)=C(C(=O)c2sc(C)nc2C)C1c1ccco1 (stereo not given) | -12.1% | -2.6%
CC1NC(=O)NC1CCCCCC(=O)Nc1ccc(F)c(Cl)c1 (stereo not given) | i | 3.1%
Cc1ccn2c(=O)cc(COc3ccc(NC(=O)COc4ccccc4)cc3)nc2c1 | -9.7% | -8.6%
Cc1ccc(/C=C/c2onc(C)c2S(=O)(=O)N2CCC(C(=O)N3CCN(c4cc(C)ccc4C)CC3)CC2)cc1 | -5.8% | -4.2%
CN(C)c1ccc(/C=N\Nc2ccc([N+](=O)[O-])cc2[N+](=O)[O-])cc1Br | 24.9% | -7.2%
COc1ccc(C)cc1NC(=O)C1CCCN(c2ncnc3onc(C)c23)C1 (stereo not given) | i | -18.2%
COc1cc(NC(=O)Cn2c(=O)n(C(C)C)c(=O)c3oc4ccccc4c32)cc(OC)c1 | -8.3% | -7.3%
COc1ccccc1N1C(=O)c2ccccc2NC1c1cc(OC)c(OC)c(OC)c1 (stereo not given) | i | -1.4%
COc1ccc(Cn2c(CO)cnc2SCC(=O)Nc2cc(C)on2)cc1 | i | 2.5%
O=[N+]([O-])c1ccc2c(c1)C(O)n1nc(-c3ccc(Cl)cc3Cl)nc1S2 (stereo not given) | -2.3% | 8.4%
O=C(CCS(=O)(=O)c1ccc(Cl)cc1)Nc1nnc(-c2cccs2)o1 | ? | ?
CN1C(=O)/C(=C\c2ccc(N3CCCCC3)o2)C(=O)NC1=S | -4.0% | 23.6%
CCCn1nc([N+](=O)[O-])c(C(C#N)c2nc3ccccc3o2)c(Cl)c1=O (stereo not given) | i | -19.8%
O=C(O)c1ccc(/C=N/N2CCN(Cc3cccc4ccccc34)CC2)cc1 | -7.6% | -9.0%
COc1ccc(-c2cc(CS(=O)(=O)c3ccccc3)on2)cc1 | -9.0% | -21.6%
CC(=O)c1ccc(-n2cc(-c3ccc(C(C)(C)C)cc3)[n+]3c2SCCC3)cc1 | -8.0% | -10.1%
CN(C)C(CNC(=O)c1ccc(-c2ccccc2)cc1)c1ccccc1 (stereo not given) | -22.3% | -12.8%
CCCn1c(N)c(C(=O)COC(=O)COc2ccc(Cl)c(C)c2)c(=O)n(C)c1=O | -11.3% | -14.2%
CCCC[C@@H]1CNC(=O)C(=O)N1CCCc1cc(OC)c(OC)c(OC)c1 | -2.9% | -8.7%
CCNc1c(NS(=O)(=O)c2ccc(Br)s2)c(=O)oc2ccccc12 | -9.3% | -2.4%
COc1cc(CNc2ccc3[nH]c(=O)[nH]c3c2)cc(Br)c1OCc1ccc(F)cc1 | ? | -28.0%&5.1%
Cc1cc(=S)cc(C)n1CCO | i | -19.7%
Cc1ccc(S(=O)(=O)N2CCCC2CNC(=O)C(=O)NCCN2CCOCC2)cc1 (stereo not given) | -12.6% | -4.1%
CC(C)CNC(=O)COc1ccc2c3c(c(=O)oc2c1)CCC3 | i | -3.7%
O=C(COC(=O)Cn1cnc2ccccc21)NCCC1=CCCCC1 | i | -2.1%
The list goes on:
SMILES | Vaccinia mCherry | VACV Venus inh
CCN1CCCC1CNc1ncnc2c1[nH]c1ccc(F)cc12 (stereo not given) | / | -11.6%
CCOc1ccc(NC(=O)CN(C)c2ccc(S(=O)(=O)N3CCOCC3)cn2)cc1OCC | / | -11.4%
Cc1ccccc1OCc1nnc(SCC(=O)Nc2ccc3nc(SCC(=O)NC(C)(C)C)sc3c2)n1C | / | ?
CCn1c(NC(C)=O)nc2ccccc21 | i | -9.6%
Cc1c(NC(=O)CSc2nc(N)cc(N)n2)c(=O)n(-c2ccccc2)n1C | i | -12.3%
O=C(NCc1ccc(Cl)cc1)c1cnc2sc(N3CCCC3)nn2c1=O | -14.6% | -14.2%
COc1ccc(-c2cc(C(=O)OCC(=O)NC3CC3)c3ccccc3n2)cc1OC | i | 1.2%
COc1ccc(-c2ccc(/C=C(\NC(=O)c3ccccc3)C(=O)N3CCOCC3)o2)cc1 | ? | ?
COCCN1C(=O)c2cc(C(=O)Nc3ccc(OC)c(OC)c3)ccc2C1Nc1ccc(OC)c(OC)c1 (stereo not given) | -4.5% | -13.8%
Clc1ccc(Oc2nc3ccccc3n3cccc23)cc1 | / | -11.9%
CC(NC(=O)c1ccccc1)C(=O)OCC(=O)Nc1cccc(S(=O)(=O)N2CCCC2)c1 (stereo not given) | -14.3% | -5.2%
CCc1nnc(NC(=O)CCn2cnc3ccccc3c2=O)s1 | i | -6.5%
CCN(CC)CCCC(C)NC(=O)c1ccc(C(F)(F)F)cc1 (stereo not given) | ? | -14.6%
CC(=O)Nc1ccc(C=NNc2nnc(NN=Cc3ccc(NC(C)=O)cc3)c3ccccc23)cc1 | -22.8% | -25.4%
CC(C)N1CCN(Cc2cc3ccccc3[nH]2)CC1CCO (stereo not given) | -15.4% | -9.4%
O=C(CCC(=O)OCCOc1ccccc1)OCCOc1ccccc1 | 15.7% | 10.2%
CC(NC(=O)c1ccccc1)c1nnc(SCc2nc3ccccc3c(=O)[nH]2)n1C (stereo not given) | i | -4.5%
CCN1CCCC1CNCc1ccc(OCc2ccc(Cl)nc2)c(OC)c1 (stereo not given) | -13.0%[7.34 µM] | -16.0%[7.34 µM]
Cc1ccc(-c2nnc(N3CCN(C(=O)CSc4ncn[nH]4)CC3)c3ccccc23)cc1 | ? | -16.5%
O=C(CSCc1c(Cl)cccc1Cl)NCc1ccccn1 | i | -13.8%
O=S(=O)(c1ccccc1)c1nnn2c1nc(NCc1ccc(F)cc1)c1sccc12 | -11.8% | -7.0%
CCOC(=O)c1ccc(CN(Cc2ccc(C)cc2)S(=O)(=O)c2ccc(NC(C)=O)cc2)cc1 | -4.1% | -6.4%
Nc1c(S(=O)(=O)c2ccccc2)c2nc3ccccc3nc2n1/N=C/c1cccc(O)c1 | / | 11.2µM*
O=C(CSc1ccc2ccccc2n1)c1ccccc1 | -11.5%[7.34 µM] | -2.8%[7.34 µM]
CSC1=C(C#N)C(c2ccccc2)C(C(C)=O)=C(C)N1 (stereo not given) | i | 3.2%
COc1ccccc1-c1cccc([C@@H]2C[C@H]3[C@H](CON3C)CN2C(C)=O)c1 | -21.4% | -16.2%
COc1ccccc1C(=O)Nn1cnnc1 | -14.7% | -6.4%

Another view of part of the listing above:
Results follow in this order: Vaccinia mCherry	VACV Venus inh
> Cc1ccc(-c2nnc(N3CCN(C(=O)CSc4ncn[nH]4)CC3)c3ccccc23)cc1
→ ?	-16.5%
> O=C(CSCc1c(Cl)cccc1Cl)NCc1ccccn1
→ i	-13.8%
> O=S(=O)(c1ccccc1)c1nnn2c1nc(NCc1ccc(F)cc1)c1sccc12
→ -11.8%	-7.0%
> CCOC(=O)c1ccc(CN(Cc2ccc(C)cc2)S(=O)(=O)c2ccc(NC(C)=O)cc2)cc1
→ -4.1%	-6.4%
> Nc1c(S(=O)(=O)c2ccccc2)c2nc3ccccc3nc2n1/N=C/c1cccc(O)c1
→ /	11.2µM*
> O=C(CSc1ccc2ccccc2n1)c1ccccc1
→ -11.5%[7.34 µM]	-2.8%[7.34 µM]
